Ecoli rRNA inh: reduced GFP signal of wild-type E. coli, primary screen, bacterial rRNA inhibitor project, GFP/RFP fluorescence, OD600, single point. E. coli WT GFP vs humanized-ribosome RFP mutants, 24 h; active compounds read low; DMSO median 0, no signal -100. GFP signal change (wild-type ribosome), % (no concentration beside the values). 350,000 compounds, 1.6% hits. AID 720706, 2013;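 active = significant combined selectivity score with lowered wild-type GFP, culture density cut under 30%, mutant RFP and density less affected; inactive = any of these conditions unmet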; note: one replicate is shown; some compounds called inactive have numbers as strong as hits
LANA-H2A inh: blockers of LANA interaction with H2A/H2B – biochemical, FP readout, HTS, primary screen | 320,000 compounds, 0.6% hits | inhibition, % (no concentration beside the values) | Protein LANA1 (Human herpesvirus 8 type P (isolate GK18)), Q9QR71 | cell-free LANA-H2A/H2B peptide, fluorescence polarization | AID 2629, 2010; in the data active = inhibition mostly above about 10%, no sharp cut-off; inactive = mostly below about 6.7%;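 note: stock transfer was 7.5 nL into about 10 µL; 0% = median of vehicle wells and 100% = median of positive control wells; one replicate is shown; the record names a cut of 25% in any replicate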
Calb FLC: C. albicans growth inhibition with fluconazole, primary screen, CaCi-2 strain, Alamar Blue fluorescence; C. albicans CaCi-2 (fluconazole-resistant clinical isolate) + fluconazole, 48 h; growth inhibition, % (test concentration not listed); 300,000 compounds, 0.57% hits; AID 1979, 2009;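 active = most replicates above 75%; inconclusive = exactly half above 75%; inactive = most below 75%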;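 note: all wells also contain fluconazole at 8 µg/ml as a sub-toxic cotreatment; 0% = median of DMSO wells and 100% = median of geldanamycin control wells; wells of about 8 µL received 7.5 nL stock; the first replicate is given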
Beta apoptosis: inhibitors of cytokine-induced beta cell apoptosis, primary screen, luminescence | INS-1E cytokine-induced death, ATP luminescence, 48 h; percent of positive-control rescue, neutral wells zero | protection from apoptosis, % (concentration not given with the values) | 300,000 compounds, 0.8% hits;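 active = all replicates at 75% or more, or half of them and the mean; inconclusive = half reach 75% but not the mean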;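 note: 0% = cytokine-treated negative control wells and 100% = positive control rescue; higher means more ATP so stronger rescue from cytokine killing; wells of about 40 µL received 100 nL stock; the first replicate is given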
Beta2AR agonist: beta2AR agonists driving receptor internalization, primary screen, cell-based, FAP fluorogen, flow cytometry. Beta-2 adrenergic receptor (Homo sapiens), P07550. Am2.2-beta2AR cells; reference of the scale not given here. response, % (no concentration beside the values). 340,000 compounds, 0.43% hits. AID 504454, 2011;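 active = response above a set limit, near 3 SD of response in nonfluorescent compounds, cut at about 42% in these data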;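 note: stock transfer was 100 nL into about 11 µL; a reference agonist was the positive control; negative values mostly stem from fluorescent compounds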
Target sequence (P07550 whole entry, looked up): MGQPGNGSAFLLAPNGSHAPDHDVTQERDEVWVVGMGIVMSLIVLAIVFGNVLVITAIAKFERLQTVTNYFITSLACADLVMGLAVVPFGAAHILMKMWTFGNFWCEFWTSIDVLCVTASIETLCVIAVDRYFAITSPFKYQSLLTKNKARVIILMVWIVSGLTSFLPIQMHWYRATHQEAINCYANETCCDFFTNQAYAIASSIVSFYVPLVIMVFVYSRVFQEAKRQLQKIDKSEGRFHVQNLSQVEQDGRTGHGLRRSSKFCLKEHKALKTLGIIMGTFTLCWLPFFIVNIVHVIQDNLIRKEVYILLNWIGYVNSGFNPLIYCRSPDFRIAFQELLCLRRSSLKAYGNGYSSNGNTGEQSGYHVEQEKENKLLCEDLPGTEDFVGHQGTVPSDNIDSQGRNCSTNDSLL
ALR inh: inhibitors of human ALR sulfhydryl oxidase, primary screen, biochemical, H2O2 detection, HRP-luminol luminescence, single point. FAD-linked sulfhydryl oxidase ALR (Homo sapiens), P55789. AID 485317, 2010. 290,000 compounds, 3.8% hits. purified ALR, DTT oxidation. inhibition, % (test concentration not listed);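 active = mean and each replicate at 75% or more; inconclusive = only one of the two met; inactive = neither met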;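 note: stock transfer was 7.5 nL into about 7.5 µL; 0% = neutral wells and 100% = wells with inactivated enzyme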
Target sequence (P55789 whole entry, looked up): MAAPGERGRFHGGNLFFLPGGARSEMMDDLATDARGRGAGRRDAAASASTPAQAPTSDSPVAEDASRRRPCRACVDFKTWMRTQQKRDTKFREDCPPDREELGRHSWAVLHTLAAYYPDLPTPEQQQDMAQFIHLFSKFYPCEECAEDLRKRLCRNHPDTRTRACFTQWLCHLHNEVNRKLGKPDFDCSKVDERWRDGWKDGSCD
T cruzi inh: inhibitors of intracellular T. cruzi growth, primary screen, luminescence, NIH3T3 host cells; T. cruzi beta-gal in NIH3T3, 90 h; inhibition, % (concentration not given with the values); 300,000 compounds, 1.4% hits; AID 1885, 2009;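 active = mean inhibition across valid replicates above about 55%, limit read from the data; inconclusive = mean below that limit but half or more replicates reach it; inactive = mean below it, under half of replicates reach it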;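 note: signal also drops with host cell toxicity which is not excluded here; 0% = plate median of DMSO wells and 100% = zero luminescence signal; higher percent means less beta-gal luminescence so fewer parasites; stock transfer was 50 nL into about 50 µL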
Bfl-1 A1 inh: caspase 3/7 activation in MEF A1-2A-BIM cells, primary screen, A1 inhibitor project, cell-based, luminescence, HTS. Caspase-Glo 3/7 luminescence, 3 h; percent of clofoctol response, vehicle zero. caspase activation, % (no concentration beside the values). 330,000 compounds, 0.066% hits. AID 2462, 2010;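 active = over half of replicate activation scores above 10%, or exactly half above 10 with the replicate mean above 10; inconclusive = replicate mean below 10 yet half the replicates above 10; inactive = over half of replicates below 10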;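 note: wells of about 30 µL received 50 nL stock; many hits fall short of the cut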
Ecoli rRNA inh OD600: recorded beside Ecoli rRNA inh, whose call it bears; OD600 change, %; measured here: OD600 growth;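 optical density of the mix in the first replicate; 0 = DMSO median and -100 = no signal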
Ecoli rRNA inh RFP: recorded beside Ecoli rRNA inh, whose call it bears; RFP signal change, %; measured here: RFP humanized mutant strains;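 first replicate; 0 = DMSO median and -100 = no signal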
Active calls of the source: *; ? = inconclusive; . = not tested or not shown. An excerpt (hit frequency here may not be typical).

Below each SMILES – Ecoli rRNA inh, Ecoli rRNA inh OD600, Ecoli rRNA inh RFP, LANA-H2A inh, Calb FLC, Beta apoptosis, Beta2AR agonist, ALR inh, T cruzi inh, Bfl-1 A1 inh
CSc1cccc(NC(=O)CN2C(=O)c3ccccc3S2(=O)=O)c1
    5, 5, 1.9, 0.1, -2, -2, 2, 95*, -13, 0.4
CC(C)(C)Nc1nc2cc([N+](=O)[O-])ccc2o1
    10, 3, 9.2, 6.0, -14, -7, -7, -1, 8, 0.4
CCOC1(OCC)C(c2ccc(N)cc2)C(C#N)(C#N)C1(OCC)OCC (stereo unspecified)
    ., ., ., 0.6, ?, -10, 5, 0, 0, 0.1
C=CCNC(=O)C(=O)c1c(-c2ccccc2)[nH]c2ccccc12
    -1, -5, 1.1, -0.2, 3, 2, -9, -5, 9, 1.0
COc1ccc(C2(C#N)CCC(=O)N2c2ccccc2)cc1 (stereo unspecified)
    ., ., ., -1.3, -7, 1, -4, -10, -14, -0.1
O=C(CN1C(=O)NC2(CCOc3ccccc32)C1=O)NCCc1ccc(F)cc1 (stereo unspecified)
    -4, 12, -2.0, 0.3, ., 6, -17, -9, ., 2.2
CCOC(=O)C1=C(c2ccccc2)NC(SCC(=O)Nc2ccccc2C)=C(C#N)C1c1ccco1 (stereo unspecified)
    ., ., ., 2.2, 29, 4, -1, -16, 16, -0.5
Cn1c(/C(C#N)=C(\O)c2cccc(F)c2)nc2ccccc21
    3, 16, 0.0, -7.7, 1, -7, -8, -2, 0, 0.2
CC(C)C(=O)Nc1cc(C(F)(F)F)ccc1-n1ccnc1
    13, 18, 3.5, 0.9, -7, -4, 6, ., -8, 1.4
Cc1ccc(CN(C(=O)c2ccccc2[N+](=O)[O-])C2CCS(=O)(=O)C2)o1 (stereo unspecified)
    17, 13, 2.7, 0.9, 4, 1, 4, -1, -2, 1.3
COc1ccc(N2C(=O)CC(C)(C)CC2=O)cc1OC
    3, 5, -1.4, -1.6, 1, -2, -1, -1, 0, 0.8
COC(=O)Cn1nnc2c(cnn2-c2ccccc2)c1=O
    4, 3, 3.1, 0.5, 4, 4, 6, ., 3, 0.4
O=C(CSc1ccc(-c2ccccn2)nn1)Nc1ccc(F)cc1F
    26, 22, 2.9, -0.7, -1, -2, -7, -2, 6, 0.7
CCCN1CCN(C(=O)c2oc3c(Cl)cccc3c2C)CC1
    -1, -2, 2.8, -1.0, -6, -6, 15, -2, 8, -0.6
N#Cc1cccc(NC(=O)CN2CCCCCC2)c1
    7, 18, -0.1, 1.1, 5, -16, 5, ., -7, 0.2
CC(=O)Nc1ccc(S(=O)(=O)N2CCC(C(=O)NCCC(=O)Nc3ccccc3)CC2)cc1
    0, 8, -1.7, 1.2, -2, -8, 18, -30, -8, -0.5
COc1ccccc1/C=C/C1C(C(=O)OCC(C)C)=C(C)N=C2SCCC(=O)N21 (stereo unspecified)
    3, 5, 4.5, -3.4, 18, -3, -14, -1, 4, -0.2
CCN1CCN(S(=O)(=O)c2ccc(F)c(C(=O)Nc3c(F)cc(F)cc3Br)c2)CC1
    11, 14, -0.8, -0.8, -7, -17, -11, 10, 11, 0.0
O=C(CC1C(=O)NCCN1C(=O)c1ccc([N+](=O)[O-])cc1)Nc1ccc(F)cc1 (stereo unspecified)
    -2, 10, -1.3, -6.3, -4, 2, 0, 3, -30, -1.0
COc1ccc(C(=O)NC2CCN(C(=O)Nc3ccccc3Cl)CC2)cc1
    5, 4, -0.9, 1.9, -5, -1, 4, 0, 21, -0.4
CN1CCN(S(=O)(=O)c2cccc(C(=O)Nc3nc(-c4ccccc4)cs3)c2)CC1
    ., ., ., -1.8, -7, -4, 9, 7, -10, 0.3
Cc1ccc(Nc2nc(N)nc(CSCCO)n2)cc1
    ., ., ., 3.7, 3, -2, 0, -2, -14, 0.2
O=C(NCC(=O)N(CC1CCCO1)C1(C(=O)NC2CCCC2)CCCCC1)c1ccccc1 (stereo unspecified)
    ., ., ., 0.5, 2, -4, -10, -4, -25, -0.1
Cc1ccc(C(=O)NC(C)CCc2ccccc2)cc1S(=O)(=O)N1CCOCC1 (stereo unspecified)
    ., ., ., 0.8, ., 7, -1, -7, ., 1.1
CC1Cc2ccccc2N1S(=O)(=O)c1cccc(C(=O)Nc2cccnc2)c1 (stereo unspecified)
    -35, -48, -20, -1.7, -8, -2, -1, -5, 14, 0.1
C#CCNC(=O)C1=C[C@@H](c2ccc(C(F)(F)F)cc2)C[C@@H](OCc2ccc(CO)cc2)O1
    -9, -5, -3.7, -0.2, 2, 2, 3, -11, 19, 0.2
COc1ccc(CN2CCN(C(=O)C3CCN(S(=O)(=O)c4cccs4)CC3)CC2)c(OC)c1OC
    1, 4, 3.1, -5.2, -18, -1, -3, -5, -1, -0.2
CCC(=O)c1cc2c(C)cc(=O)oc2c(C)c1OC
    ., ., ., -6.8, -16, -2, 1, -4, -2, 0.6
CN(CC(=O)N1CCOCC1)C(=O)CSc1nc2ccccc2s1
    3, -1, -0.9, 0.3, -4, 3, -4, 0, 0, -0.8
Cc1ccc(CSC2=Nc3ccccc3C3=NC(CC(=O)NCc4ccco4)C(=O)N23)cc1 (stereo unspecified)
    ., ., ., 2.6, 9, -9, -12, 14, 6, -0.3
CC(C)CCN1C(=O)c2ccc(C(=O)NCC3CCCO3)cc2C1=O (stereo unspecified)
    ., ., ., -1.5, -16, 2, 4, 1, -18, -0.2
O=C(O)c1cc(C2CC2)nc2ccccc12
    ., ., ., 1.5, -3, 0, -1, 1, -16, -0.3
CCOC(=O)N1CCN(c2ccc(S(=O)(=O)N3CCOCC3)cn2)CC1
    ., ., ., -0.1, ., 3, 7, 3, ., 0.1
CCC(Oc1ccccc1)C(=O)N1CCC(C(N)=O)CC1 (stereo unspecified)
    ., ., ., 1.1, 7, -5, 3, -14, -21, -1.7
COc1cc(-c2nc(C)c(C(C)=O)n2O)ccc1OCC(=O)Nc1ccc(F)cc1
    -10, -11, -7.3, -0.3, 8, 10, -13, 6, -14, -0.9
COc1ccc(C)cc1NC(=O)c1nnn(Cc2cccc(F)c2)c1N
    -6, 2, 0.1, 5.8, -43, -8, 0, -4, -7, 0.3
CN1CCN(C(=O)c2cc3nc(-c4ccccc4)cc(-c4ccccc4)n3n2)CC1
    ., ., ., -2.5, ?, 4, -25, -8, 23, -0.1
Cc1cccc(-c2noc(CCC(=O)Nc3ccc(C(N)=O)cc3)n2)c1
    17, 7, 3.0, -0.7, -5, -10, ., -4, 2, -0.2
COC(=O)C(O)(NC(=O)NC(C)=O)C(F)(F)F (stereo unspecified)
    ., ., ., -4.3, 0, -7, -1, ., 4, 0.2
COc1ccc(CNC(=O)CSc2nnc(NC(=O)c3ccccc3F)s2)cc1
    6, 8, -1.0, -2.0, 2, 8, -1, -5, 0, -0.8
CC(C)NC(=O)C(c1ccc(F)cc1)N(C(=O)CCC(=O)Nc1ccccn1)c1ccccc1F (stereo unspecified)
    5, 10, -0.6, 0.1, 12, -4, -5, 0, -7, -0.2
COc1ccc(S(=O)(=O)Nc2cccc(S(=O)(=O)N3CCCC3)c2)cc1OC
    -1, 1, 0.6, 2.6, -2, ., 4, -11, -1, 0.5
CCCCn1c(N)c(N(CC)C(=O)c2cc(OC)cc(OC)c2)c(=O)[nH]c1=O
    0, 4, -2.1, 4.3, 15, 4, -3, 5, -14, 0.0
COc1ccc(CN(CC(=O)NCc2ccc(F)cc2)C(=O)CCC(=O)Nc2ccccn2)cc1
    -5, 3, 5.8, 0.5, -5, -16, -1, 5, 2, -0.2
COc1cc(CCCN2CCNC[C@@H]2Cc2ccccc2)cc(OC)c1OC
    11, 10, -0.8, 0.1, -2, -6, -2, 4, -9, 0.7
COCCCNC(=O)c1c(N)n(/N=C/c2cccs2)c2nc3ccccc3nc12
    ., ., ., -1.2, 2, -7, 23, -9, 23, 1.3
O=S(=O)(NCc1cc(-c2ccccc2)no1)c1ccccc1
    -23*, -18*, -2.2*, -5.7, 33, -14, -5, -9, 11, 1.1
COc1ccc(N2CC(C(=O)NCCc3c[nH]c4ccccc34)CC2=O)cc1 (stereo unspecified)
    4, 1, -3.3, 1.9, -4, -6, -22, 4, 2, -0.8
CCCCC(=O)Nc1ccc(C(=O)Nc2ccc(S(=O)(=O)Nc3nccc(C)n3)cc2)cc1
    ., ., ., -5.7, 28, -13, 3, -1, -4, 0.4
COCCn1c(SCC(=O)NC(=O)NC2CCCCC2)nc2ccccc2c1=O
    -13, -18, -14, 0.8, ., 10, -4, ., ., -0.8
CCc1ccccc1N(CC(=O)Nc1cccc(N(C)S(C)(=O)=O)c1)S(C)(=O)=O
    2, 2, 8.8, 1.1, -5, -3, 8, -5, -11, 0.0
C=C1CCN([C@@H](C)C(=O)OCc2cccc(C)c2)S(=O)(=O)c2ccccc21
    -19, -23, -16, -2.9, 10, -6, 5, 3, -23, 0.2
COCC(=O)Nc1cccc(Br)c1
    ., ., ., 1.0, -3, -8, -10, ., 2, 0.4
CCOC(=O)C1CCCN(C(=O)c2cc(CN3C(=O)c4ccccc4C3=O)ccc2OC)C1 (stereo unspecified)
    -1, -4, -0.2, 28*, 1, 2, 0, -3, -27, 2.6
Cc1ccc(/C=C/C(=O)O)cc1S(=O)(=O)N1CCc2ccccc21
    -32*, -22*, -6.9*, 0.1, -8, -10, 8, -1, 7, -0.1
CC(NC(=O)c1cccs1)c1ccc(Cl)cc1 (stereo unspecified)
    -11, -1, -3.6, 0.1, -8, ., -1, -6, 9, 1.7
